TRPML1 ag = qHTS for Agonists of the Human Mucolipin Transient Receptor Potential 1 (TRPML1); TRPML1-expressing cells, Ca2+ dye fluorescence, FDSS; host cell line not named in the record; reference of the full effect not given here; activation, % (no concentration beside the values); 410,000 tested, 0.12% active; AID 624414, 2012; in the data active = activation above about 50%; inconclusive = about 30% to 50%; inactive = below about 30%; further: 0% is about no effect; the text of the record puts the active cut at 80%
Target sequence (Q9GZU1 whole entry, looked up): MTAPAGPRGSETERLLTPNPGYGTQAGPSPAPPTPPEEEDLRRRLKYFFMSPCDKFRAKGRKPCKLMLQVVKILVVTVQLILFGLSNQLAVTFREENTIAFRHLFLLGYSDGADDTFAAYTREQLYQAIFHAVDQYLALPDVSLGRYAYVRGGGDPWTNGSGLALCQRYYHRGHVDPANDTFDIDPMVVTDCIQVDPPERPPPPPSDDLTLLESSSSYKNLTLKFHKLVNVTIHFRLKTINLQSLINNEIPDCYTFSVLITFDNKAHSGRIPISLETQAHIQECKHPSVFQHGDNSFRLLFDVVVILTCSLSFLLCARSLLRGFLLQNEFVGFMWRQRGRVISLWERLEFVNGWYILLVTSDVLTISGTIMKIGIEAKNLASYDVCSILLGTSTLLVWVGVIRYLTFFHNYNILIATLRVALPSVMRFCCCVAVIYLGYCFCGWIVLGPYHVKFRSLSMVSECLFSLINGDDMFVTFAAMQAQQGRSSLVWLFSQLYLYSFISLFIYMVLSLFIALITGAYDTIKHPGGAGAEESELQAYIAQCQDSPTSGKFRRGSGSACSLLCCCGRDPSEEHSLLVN
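Tet-induced TRPML1-DL cells, 1,500 per well, cultured overnight, were loaded with a no-wash Ca2+ dye for 45–90 min. Calcium fluorescence was recorded on the FDSS for 110 s after compound addition, before the EC80 agonist (4 uM 54-4) was added.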
gsp agonist = qHTS for Agonist of gsp, the Etiologic Mutation Responsible for Fibrous Dysplasia/McCune-Albright Syndrome: qHTS; 340,000 tested, 0.13% active; gsp mutant cells, cAMP HTRF, 30 min; control for the full effect not named in the record; AID 624287, 2012; Potency, µM (doses to about 76.9 µM), for the others: at the highest dose activation (cAMP increase), hits mostly activators; active = well fitted activation curve with a large enough effect; inconclusive = small, poorly fitted or top-dose-only effect, or another doubt; inactive = no such curve, though single readings can be large or run the other way; cell line not stated here;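 further: phosphodiesterase inhibitor Ro 20-1724 added with compounds to block cAMP breakdown; potency means the concentration at half of the fitted maximal effect; nearly all actives have a fitted effect of over 60% in size; about a fifth of the inactives were tested at one dose only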
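Cells stably selected in G418 were plated at 2000/well, grown 16-24 hr, then given compounds in DMSO with the PDE inhibitor […] (300 uM solution added) for 30 min at 37C; cAMP was read by HTRF.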
TRPML1 blocker = qHTS for Inhibitors of the Human Mucolipin Transient Receptor Potential 1 (TRPML1); 390,000 tested, 0.02% active; TRPML1-inducible cells, Ca2+ dye fluorescence, FDSS; hits give low values; inhibition of EC80 agonist-evoked calcium signal; activity change, negative = inhibition, % (concentration not given with the values); in the data active means activity change below about -50%; inconclusive means about -30% to -50%; inactive means above about -30%;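 further: stimulus is agonist 54-4 at its EC80 concentration; on the % scale 0 is the no-effect control and ±100 the full control effect; compound concentration not given in the record; the text of the record puts the active cut at -80%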
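Tet-induced TRPML1-DL cells loaded with Ca8 no-wash calcium dye were read kinetically on FDSS. Compound addition was followed by EC80 agonist 54-4 (4 uM final); inhibition was read over 110 s.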
Menin MLL FP FL = qHTS Assay for Inhibitors Targeting the Menin-MLL Interaction in MLL Related Leukemias: Competition With Fluorescein Labeled MLL-derived Peptide; Fluorescence polarization, fluorescein-MLL peptide displacement from menin; FP activity change, % at 61.4 µM; 290,000 tested, under 10 active; AID 1766, 2009; inconclusive = falling polarisation curve, or a change in total fluorescence; inactive = total fluorescence flat and polarisation flat or rising; no compound was filed as active; the % refers to the polarisation; negative = inhibition;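 further: % of control where 0% means no effect; inhibitors lower the polarisation; unlabelled MLL peptide was the positive control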
ClpP mod = qHTS Assay for Activators of ClpP. ATP-dependent Clp protease proteolytic subunit (Bacillus subtilis (strain 168)), P80244. purified B. subtilis ClpP, FRET peptide cleavage, 20 min. Potency, µM (titrated, usually from 57.5 µM), inactives show top-dose activity change, negative = active. 340,000 tested, 1.9% active; active = well fitted falling curve with a large enough effect; inconclusive = small, poorly fitted or top-dose-only effect; inactive = no such curve, though single readings can be large or run the other way; further: potency means the concentration at half of the fitted maximal effect; the source files actives as falling curves though it sought activators and does not explain the sign; nearly all actives have a fitted effect of over 65% in size; many hits overshoot -100%
Target sequence (P80244 whole entry, looked up): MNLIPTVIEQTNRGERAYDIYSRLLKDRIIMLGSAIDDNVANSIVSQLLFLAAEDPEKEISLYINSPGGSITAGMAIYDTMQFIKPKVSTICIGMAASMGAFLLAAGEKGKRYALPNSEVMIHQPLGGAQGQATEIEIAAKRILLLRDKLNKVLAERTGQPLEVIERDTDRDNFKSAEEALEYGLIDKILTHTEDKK
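Buffer: 100 mM Tris/HCl pH8, 100 mM KCl, 0.05% low protease BSA, 2.5% glycerol, 0.01% Tween-20. ClpP 10 microg/mL final; 20 min RT; delta FRET normalized to ADEP and DMSO controls.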
gsp antag = qHTS for Antagonists of gsp, the Etiologic Mutation Responsible for Fibrous Dysplasia/McCune-Albright Syndrome: qHTS. gsp-mutant cells, cAMP HTRF, 30 min; control for the full effect not named in the record. Potency, µM (titrated, usually from 76.9 µM), inactives show top-dose activity change, negative = inhibition, usual class: inhibitors. 340,000 tested, 0.4% active. AID 624288, 2012; active = falling curve of any shape with a large fitted effect; inconclusive = falling curve, mostly with a smaller effect; inactive = flat or rising curve; cell line not stated here;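 further: intracellular cAMP measured with PDE inhibitor Ro 20-1724 present during compound exposure; potency means the concentration at half of the fitted maximal effect; on the % scale 0 is the no-effect control and ±100 the full control effect; nearly all actives have a fitted effect of over 65% in size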
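HTRF cAMP read-out (cAMP-d2 plus anti-cAMP antibody-K in lysis buffer, 30 min RT). Before lysis, cells are exposed to compounds with […] for 30 min at 37C in DPBS containing Ca/Mg, BSA and Tween 20.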
* hit, by the source's call; [ ] = another dose, or the depositor's remark. Compounds as they come; overall some 2.1% were active at least once.

What do the screens show for `CSc1ccccc1NC(=O)c1ccc(N2CC3CC(C2)c2cccc(=O)n2C3)c(NC(=O)c2ccncc2)c1` (configuration not stated)?
TRPML1 ag: -0.3; gsp agonist: 25.7%; TRPML1 blocker: 4.7; Menin MLL FP FL: 2.4; ClpP mod: -0.7%; gsp antag: -3.9%

How did CC(C)(C)SCCNC(=O)/C=C/c1cccc([N+](=O)[O-])c1 do in these assays?
TRPML1 ag: 0.9; gsp agonist: 23.1%; TRPML1 blocker: 3.9; Menin MLL FP FL: 4.1; ClpP mod: 1.2%; gsp antag: -9.2%

How did Cc1ccccc1C(=O)N/N=C1/SCC(=O)N1Cc1ccccc1 do in these assays?
TRPML1 ag: 0.8; gsp agonist: -0.7%[15.4 µM]; TRPML1 blocker: 27.4; Menin MLL FP FL: 1.0; gsp antag: 8.6%

Results for Cc1cc2nc(-c3ccc(OCc4ccccc4)cc3)cc(C(F)(F)F)n2n1 ?
TRPML1 ag: -0.2; TRPML1 blocker: 7.0; ClpP mod: -7.4%

Results for COCCn1nnnc1C(c1ccc2ncccc2c1)N1CCc2ccccc21 (configuration not stated) ?
TRPML1 ag: 0.3; gsp agonist: -34.8%[inhibitor]; TRPML1 blocker: -3.3; Menin MLL FP FL: 4.9; ClpP mod: 0.2%; gsp antag: -9.1%

How did CN(Cc1ccco1)C(=O)c1ccc(CNS(=O)(=O)c2ccc3c(c2)C(C)(C)C(=O)N3C)cc1 do in these assays?
TRPML1 ag: 0.3; gsp agonist: -12.6%; TRPML1 blocker: -15.0; Menin MLL FP FL: 6.9; ClpP mod: -5.1%; gsp antag: -15.4%

Results for CCOc1cc(/C=N/NC(N)=O)cc(Br)c1OCC(=O)Nc1cccc2ccccc12 ?
TRPML1 ag: -0.1; gsp agonist: 31.6%; TRPML1 blocker: -2.8; Menin MLL FP FL: -2.3; ClpP mod: -0.1%; gsp antag: -12.3%

What do the screens show for `Cc1nn(Cc2ccccc2)c(C)c1/C=N/NC(=O)CNc1cccc(C(F)(F)F)c1`?
TRPML1 ag: 0.9; gsp agonist: -127.4%[inhibitor]; TRPML1 blocker: 2.7; Menin MLL FP FL: 1.6; ClpP mod: -2.7%; gsp antag: -10.6%

How did CC(C)C(NC(=O)c1ccccc1)c1nnc(SCC(=O)NC2CCCC2)n1C (configuration not stated) do in these assays?
TRPML1 ag: 0.8; gsp agonist: 14.2%; TRPML1 blocker: 33.8; Menin MLL FP FL: -5.9; gsp antag: -0.6%

How did Cc1cnc(NCCc2ccccc2)s1 do in these assays?
TRPML1 ag: -0.3; gsp agonist: -26.5%; TRPML1 blocker: -9.0; Menin MLL FP FL: -0.8; ClpP mod: -1.8%; gsp antag: 6.2%

Results for CCn1ncc([N+](=O)[O-])c1C(=O)Nc1c(C)cccc1C ?
TRPML1 ag: 0.0; gsp agonist: -18.5%; TRPML1 blocker: -6.5; Menin MLL FP FL: -1.0; ClpP mod: -3.1%; gsp antag: 2.6%

What do the screens show for `COC(=O)c1[nH]c2cccc(OC)c2c1NC(=O)C(C)N1CCC(C)CC1` (configuration not stated)?
TRPML1 ag: 0.7; gsp agonist: -3.8%; TRPML1 blocker: -3.6; Menin MLL FP FL: 0.2; ClpP mod: 31.6µM*; gsp antag: 3.0%

What do the screens show for `COc1cccc(-c2ccc(NC(=O)C3CCCN(CCCn4nc(C)cc4C)C3)cc2)c1` (configuration not stated)?
TRPML1 ag: -0.2; gsp agonist: 36.3%; TRPML1 blocker: 30.6; Menin MLL FP FL: 7.9; ClpP mod: -3.9%; gsp antag: 3.7%

What do the screens show for `c1ccc(-c2nc(NCc3ccco3)c3ccccc3n2)nc1`?
TRPML1 ag: -1.2; gsp agonist: 9.9%; TRPML1 blocker: -5.2; Menin MLL FP FL: 4.1; ClpP mod: -2.4%; gsp antag: 10.6%

How did CC1(c2ccccc2)NC(=O)N(CCN2C(=O)c3ccccc3C2=O)C1=O (configuration not stated) do in these assays?
TRPML1 ag: -0.4; gsp agonist: -23.6%; TRPML1 blocker: 0.4; Menin MLL FP FL: 1.2; ClpP mod: -0.1%; gsp antag: -5.4%

Results for CCCCCCc1cc2cc(C(=O)NC)c(=N)oc2cc1O ?
TRPML1 ag: 3.7; gsp agonist: 4.3%[15.4 µM]; TRPML1 blocker: -11.9; Menin MLL FP FL: inconclusive; ClpP mod: 1.8%; gsp antag: -3.9%

How did COc1ccc(S(=O)(=O)N(CC(=O)NC(C)C)Cc2ccccc2)cc1 do in these assays?
TRPML1 ag: 0.1; gsp agonist: 27.0%; TRPML1 blocker: 5.3; Menin MLL FP FL: 0.7; ClpP mod: -0.5%; gsp antag: 7.8%

Results for CCCSc1ncc(Cl)c(C(=O)Nc2sc(C(C)=O)c(C)c2C(=O)OCC)n1 ?
TRPML1 ag: 0.0; TRPML1 blocker: 3.8; ClpP mod: -1.4%

How did O=C(NCC(c1ccco1)N1CCc2ccccc2C1)c1ccc(F)cc1 (configuration not stated) do in these assays?
TRPML1 ag: 0.8; gsp agonist: 5.2%; TRPML1 blocker: 1.7; ClpP mod: 3.0%; gsp antag: -12.3%

Results for CC(C)c1ccc(NC(=O)CSc2nc(=O)n(CCN3CCOCC3)c3c2CCC3)cc1 ?
TRPML1 ag: -0.4; gsp agonist: -9.3%; TRPML1 blocker: 5.1; ClpP mod: -2.0%; gsp antag: -1.0%

Results for COCCN(C(=O)CSc1nnc(-c2ccccc2F)n1C)c1c(N)n(Cc2ccccc2)c(=O)[nH]c1=O ?
TRPML1 ag: -0.2; gsp agonist: -1.8%; TRPML1 blocker: 3.0; Menin MLL FP FL: -4.0; gsp antag: 8.4%

Results for CCN(CC)CCOC(=O)c1ccc(NC(=O)CCCN2C(=O)/C(=C\c3cccs3)SC2=S)cc1 ?
TRPML1 ag: 0.8; gsp agonist: 7.1%; TRPML1 blocker: -8.8; ClpP mod: 1.3%; gsp antag: -6.4%

What do the screens show for `COc1ccc(N(CC(=O)NCCSc2ccccc2)S(=O)(=O)c2ccccc2)cc1`?
TRPML1 ag: 3.2; gsp agonist: 6.8%; TRPML1 blocker: 24.4; ClpP mod: -1.8%; gsp antag: -23.8%

What do the screens show for `O=C(CCNS(=O)(=O)c1ccc(Br)cc1)NC1CCC(O)CC1` (configuration not stated)?
TRPML1 ag: 0.2; gsp agonist: inconclusive; TRPML1 blocker: -9.5; ClpP mod: 0.5%; gsp antag: 5.1%

What do the screens show for `COc1ccccc1/C=C/C=N/n1c(-c2ccncc2)n[nH]c1=S`?
TRPML1 ag: 0.4; gsp agonist: 25.1%[15.4 µM]; TRPML1 blocker: -1.9; Menin MLL FP FL: 0.3; ClpP mod: -3.6%; gsp antag: -15.0%

How did Cc1cccc(-c2nnc(NC(=O)c3cccs3)s2)c1 do in these assays?
TRPML1 ag: -0.3; gsp agonist: 11.3%; TRPML1 blocker: 0.4; Menin MLL FP FL: 1.2; ClpP mod: 3.2%; gsp antag: -9.0%

How did O=C(NCCO)c1cccc2c1C(=O)c1ccccc1-2 do in these assays?
TRPML1 ag: 0.3; gsp agonist: -59.8%; TRPML1 blocker: 12.8; Menin MLL FP FL: 1.4; ClpP mod: 2.0%; gsp antag: 9.2%

Results for O=C(C1Cc2ccccc2CN1S(=O)(=O)c1ccccc1[N+](=O)[O-])N1CCOCC1 (configuration not stated) ?
TRPML1 ag: -0.1; gsp agonist: -29.2%; TRPML1 blocker: -10.5; ClpP mod: 1.9%; gsp antag: -12.4%

What do the screens show for `O=C(CN(Cc1ccccc1F)S(=O)(=O)c1ccc(Cl)cc1)NCC1CCCO1` (configuration not stated)?
TRPML1 ag: -1.1; gsp agonist: 16.5%[15.4 µM]; TRPML1 blocker: 20.9; Menin MLL FP FL: -3.5; gsp antag: 2.0%

What do the screens show for `COc1ccc(C2C(C(C)=O)=C(C)N=c3s/c(=C\c4ccco4)c(=O)n32)c(OC)c1` (configuration not stated)?
TRPML1 ag: 1.9; gsp agonist: -13.2%; TRPML1 blocker: 12.3; Menin MLL FP FL: 19.4; ClpP mod: -3.8%; gsp antag: -8.5%

How did COc1ccc(C(=O)Nc2ccccc2C(=O)Nc2ccncc2)cc1 do in these assays?
TRPML1 ag: -0.8; gsp agonist: 3.7%[15.4 µM]; TRPML1 blocker: 9.9; Menin MLL FP FL: -0.6; ClpP mod: -8.5%; gsp antag: -19.5%

What do the screens show for `COc1cc(/C=C2/C(=N)N3C(SC)=NSC3=NC2=O)ccc1OC(=O)c1ccco1`?
TRPML1 ag: -0.8; gsp agonist: -9.8%[15.4 µM]; TRPML1 blocker: 0.1; Menin MLL FP FL: inconclusive; ClpP mod: 0.6%; gsp antag: -10.1%

How did Clc1ccc(-c2nc3ccccn3c2CN2CCCCC2)cc1 do in these assays?
TRPML1 ag: -0.2; gsp agonist: 21.4%; TRPML1 blocker: -29.8; Menin MLL FP FL: -4.0; ClpP mod: inconclusive; gsp antag: -31.1%

How did O=C1CSC(c2ccccc2)N1Cc1ccccn1 (configuration not stated) do in these assays?
TRPML1 ag: -0.8; gsp agonist: 20.0%[15.4 µM]; TRPML1 blocker: 16.9; Menin MLL FP FL: 6.5; ClpP mod: 0.4%; gsp antag: 6.4%

What do the screens show for `CSCCC(NS(=O)(=O)c1ccccc1F)C(=O)N1CCCCCC1` (configuration not stated)?
gsp agonist: 2.2%; Menin MLL FP FL: 5.3; ClpP mod: -1.7%; gsp antag: 11.4%

What do the screens show for `CCc1nc2sc(C)c(C)c2c(=O)n1CCO`?
TRPML1 ag: -0.7; gsp agonist: inconclusive; TRPML1 blocker: -14.3; Menin MLL FP FL: 0.6; ClpP mod: -0.2%; gsp antag: 10.2%

Results for Cc1cc(C)c2c(=N)c3ccccc3n(CCCCCCCCn3c4ccccc4c(=N)c4c(C)cc(C)nc43)c2n1 ?
TRPML1 ag: 1.8; gsp agonist: 22.0%; TRPML1 blocker: 1.5; ClpP mod: 31.6µM*; gsp antag: 5.9%

How did CNC(=O)c1ccccc1NC(=O)c1ccc(C)c(S(=O)(=O)N2CCCCC2)c1 do in these assays?
TRPML1 ag: 0.4; gsp agonist: 9.2%; TRPML1 blocker: -0.4; Menin MLL FP FL: 2.1; ClpP mod: 0.5%; gsp antag: -18.1%
